Source: PubChem BioAssay (several laboratories)
Rce1 inh: yeast Ras-converting enzyme inhibition; 0.27% of 290,000 active; calls only; Q03530; AID 2563; yeast membranes, quenched prenylated peptide cleavage fluorescence;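 active means fall in fluorescence gain of 50% or more versus controls, with final raw signal at or below 3038400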;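 further: plate controls were neutral control wells for no effect and wells lacking membranes for full effect; tested at 10 µM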
Target sequence (Q03530 whole entry, looked up): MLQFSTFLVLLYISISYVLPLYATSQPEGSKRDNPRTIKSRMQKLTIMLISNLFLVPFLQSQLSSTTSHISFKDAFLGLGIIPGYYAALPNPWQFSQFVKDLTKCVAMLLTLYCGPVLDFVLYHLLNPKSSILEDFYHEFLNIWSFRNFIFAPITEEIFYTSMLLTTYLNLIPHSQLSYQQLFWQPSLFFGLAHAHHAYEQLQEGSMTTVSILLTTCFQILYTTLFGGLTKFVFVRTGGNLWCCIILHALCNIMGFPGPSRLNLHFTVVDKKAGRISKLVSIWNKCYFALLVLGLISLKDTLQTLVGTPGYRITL
HIV Env fusion: blocks HIV Env-driven cell-cell fusion; HeLa-JRFL Env/CEM21 cell fusion, luciferase; AID 651610; 1.1% of 360,000 active; inhibition, % at 12.3 µM;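 active means mean replicate inhibition score of at least 50 and every replicate individually at or above 50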;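 further: 0% = plate neutral controls and 100% = maraviroc near 300 nM; one replicate is shown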
PABP FP inh: PABP-poly(A) binding inhibition | PABP-poly(A) RNA binding, fluorescence polarization | inhibition, % at 35 µM | 1% of 290,000 active;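 active means 50% or more with normal probe brightness, or confirmed in later tests; about a fifth of its hits are not listed in these tables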;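 further: calls also rest on retests at 20 µM and on dose response follow-up; controls were probe without protein and protein plus probe with vehicle; some compounds called inactive have numbers as strong as hits; many hits fall short of the cut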
Target sequence (P11940 whole entry, looked up): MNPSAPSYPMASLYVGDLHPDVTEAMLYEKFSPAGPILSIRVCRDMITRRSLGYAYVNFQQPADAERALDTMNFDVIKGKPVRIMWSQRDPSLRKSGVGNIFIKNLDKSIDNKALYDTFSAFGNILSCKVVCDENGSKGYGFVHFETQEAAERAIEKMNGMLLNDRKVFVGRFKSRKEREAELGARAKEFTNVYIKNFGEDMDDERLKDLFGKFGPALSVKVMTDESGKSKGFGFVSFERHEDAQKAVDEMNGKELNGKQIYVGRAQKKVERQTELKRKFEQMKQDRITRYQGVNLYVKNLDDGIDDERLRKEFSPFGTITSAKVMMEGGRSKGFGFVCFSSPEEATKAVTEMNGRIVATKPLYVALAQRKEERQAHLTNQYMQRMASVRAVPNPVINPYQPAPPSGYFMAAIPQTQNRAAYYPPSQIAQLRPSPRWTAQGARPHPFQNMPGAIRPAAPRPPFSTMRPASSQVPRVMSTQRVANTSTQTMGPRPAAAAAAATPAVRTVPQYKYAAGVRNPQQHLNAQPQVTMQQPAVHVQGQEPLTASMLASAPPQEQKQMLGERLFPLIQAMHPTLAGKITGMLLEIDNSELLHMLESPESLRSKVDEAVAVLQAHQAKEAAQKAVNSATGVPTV
CSC inhib: cancer stem cell inhibition; 1.1% of 300,000 active; cancer stem cell-like cells viability, luminescence; AID 2717; inhibition, % at 7.5 µM;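 active means mean at 75% or more and at least half the replicates too; tested in HMLE shEcad cells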;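 further: 0% = median of negative and 100% = median of positive control wells; the first replicate is given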
UUG fidelity: alters start codon recognition fidelity in yeast; S. cerevisiae UUG-firefly luciferase reporter, luminescence/redox ratio; activity score, % at 18.7 µM; 0.13% of 350,000 active; AID 602363;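 active means replicate mean at a twofold rise or more, about +100% in these data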;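 further: firefly luciferase made from a UUG start codon reports start codon fidelity; reporter light over untreated wells divided by growth signal over untreated wells; some hits fall short of that in this replicate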
eIF4H FP inh: inhibitors of RNA binding by human eIF4H; 0.94% of 290,000 active; inhibition, % at 35 µM; eIF4H fluorescence polarization binding assay; Q15056;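 active means 50% or more with normal probe brightness, or confirmed in later tests; about a fifth of its hits are not listed in these tables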;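 further: calls also rest on retests at 20 µM and on dose response follow-up; 0% = protein and probe with vehicle and 100% = probe without protein; strong numbers were not always called active; many hits fall short of the cut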
MT1-MMP act inh: MT1-MMP (human) activation inhibition; P50281; HT1080 RFP-PRO-GFP cells, GFP/RFP ratio fluorescence, overnight; percent of plate control window, DMSO zero; GFP/RFP ratio change, % at 20 µM; 0.061% of 360,000 active; AID 651647;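 active means GFP/RFP ratio change of at least 30% with cell ATP level not reduced by more than half and red fluorescence within 50% of control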; further: strong numbers were not always called active
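Assay system: HT1080 RFP-PRO-GFP cells | Dosing: 20 µM single dose, 1% DMSO | Incubation: Cells overnight before dosing, compound overnight, 37 °C, 5% CO2 | Evaluation: GFP/RFP fluorescence ratio | Control set: DMSO-only wells and HT1080 RFP-L50D-GFP cell wells as references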
eIF4H FP inh retest: second read-out of eIF4H FP inh, no call of its own (marks repeat the call); inhibition, %; compound at 20 µM; confirmation average;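 mean of two retest wells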
PABP FP inh retest: second read-out of PABP FP inh, no call of its own (marks repeat the call); inhibition, %; compound at 20 µM; confirmation repeats;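 mean of two retest wells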
MT1-MMP act inh RFP: second read-out of MT1-MMP act inh, no call of its own (marks repeat the call); RFP signal change, %; measured here: RFP expression control read;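 0 = vehicle wells; hits needed this value within 50% of zero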
* = called active by the depositor; i = inactive; nt = no result given; & = joins results of further samples.

SMILES	Rce1 inh	HIV Env fusion	PABP FP inh	CSC inhib	UUG fidelity	eIF4H FP inh	MT1-MMP act inh	MT1-MMP act inh RFP	others
Cc1cccc(S(=O)(=O)Nc2cc(Cl)ccc2N2CCOCC2)c1	nt	40	nt	-10	-3	nt	7	-1
CN(CC(=O)Nc1ccc(F)cc1)C(=O)C1CCN(S(=O)(=O)c2ccc3c(c2)OCCO3)CC1	i	5	nt	2	nt	nt	2	-3
O=C(COC(=O)c1ccc(N2CCOCC2)c([N+](=O)[O-])c1)Nc1ccc2c(c1)OCO2	i	nt	1	-7	nt	-2	5	4
O=C(O)c1ccccc1C(=O)Nc1ccccc1NC(=O)c1ccccc1C(=O)O	nt	-28	nt	-5	-23	nt	-6	5
O=C(NCc1cccs1)c1ccc2sc([C@H]3C[C@H](O)[C@@H](CO)O3)nc2c1	nt	28	nt	nt	-36	nt	0	2
COc1cccc2cc(C(=O)N3CCN(c4ccc(C)cc4C)CC3)c(=O)oc12	i	-60	3	5	19	-1	6	0
Cc1cc2cc(CN(Cc3ccco3)S(=O)(=O)c3c(C)ccc4nsnc34)c(=O)[nH]c2cc1C	i	77*	-3	19	-13	-8	-4	-6
COc1ccc(/C=C2\N=C(C)OC2=O)cc1OC	i	-34	4	3	nt	-1	5	6
COc1ccc(NS(=O)(=O)c2cccc(C(=O)NNC(=O)c3cc(S(N)(=O)=O)ccc3OC)c2)cc1	i	-9	nt	2	-8	nt	4	1
NC(=O)CSc1nc2cc3c(cc2c(=O)n1CCCC(=O)NCc1ccc2c(c1)OCO2)OCO3	i	43	-9	1	-20	-6	-15	-11
Nc1c(C(=O)C2CC2)sc2nc(-c3cccs3)cc(C(F)(F)F)c12	i	nt	108	1	nt	94*	-154	7	eIF4H FP inh retest=84*;PABP FP inh retest=43
CC1CCN(C(=O)CCS(=O)(=O)c2cc3c(cc2Cl)NC(=O)CO3)CC1	i	6	7	-7	-5	0	3	5
CN(/N=C/c1cc(Cl)cc(Cl)c1O)c1c(Cl)cccc1[N+](=O)[O-]	i	3	10	41	-20	8	2	-3
COc1c(CC=C(C)C)c(O)cc2oc(=O)c3c4ccc(O)cc4oc3c12	i	nt	nt	-2	-12	nt	-4	-10
O=c1cc(-c2cccc(Br)c2)oc2cccc(O)c12	i	-36	13	2	-7	-9	2	5
CCCCOc1ccc(N(CC(=O)NC2CCCCC2)C(=O)c2snc(C(N)=O)c2N)cc1	i	1	-7	-9	nt	-12	1	-2
CC(C)(C)NC(=O)CSc1nnc(-c2ccncc2)o1	i	nt	-3	-4	nt	5	nt	nt
FC(F)(F)c1cc(C(F)(F)F)c2ccc(N3CCN(c4ccccc4)CC3)nc2n1	i	-69	-2	0	-8	4	3	4
Cc1ccc(C(=O)/C=C/NCc2ccc(F)cc2)cc1	i	6	10	-7	nt	1	1	4
Cn1c(=O)c2c(nc(SCCN3CCOCC3)n2Cc2cccc3ccccc23)n(C)c1=O	i	3	-1	-15	2	22	-2	-5
Nc1ccc(Nc2ccccc2)c(Cl)c1	i	nt	0	6	-15	-7	6	5
CCOC(=O)N/N=C\C=C\c1ccc2c(c1)OCO2	i	-10	0	2	-14	10	2	0
CCOC(=O)COc1ccccc1/C=C1\NC(=O)NC1=O	i	-17	-12	-21	-11	-10	1	4
O=C(COC(=O)C1CCN(S(=O)(=O)c2cccs2)CC1)Nc1ccccc1Br	i	13	-6	0	17	-4	0	5
O=C(COc1ccccc1)N1CCN=C1c1ccccc1	i	-33	5	3	2	1	0	8
O=S(=O)(c1ccc(F)cc1)N1CCN=C1SCc1cccc(F)c1	i	12	0	4	-13	-4	-1	-5
CC(NC(=O)c1cc(-c2cccnc2)nc2ccc(Br)cc12)C1CCCO1 (stereo unspecified)	i	-10	-6	3	-15	2	0	-1
Cc1ccccc1-c1nnc(SCC(=O)NC2CCS(=O)(=O)C2)n1C (stereo unspecified)	nt	nt	nt	-7	-16	nt	2	2
CC1CCN(c2ccc3nnc(CCC(=O)Nc4cccc(F)c4)n3n2)CC1	i	-1	0	-9	-31	2	-3	-7
CCOC(=O)c1c(NC(=O)/C=C/C(=O)O)sc(C)c1-c1ccc(Cl)cc1	i	-12	14	75*	nt	-13	-7	-7
O=C(O)Cn1c(=O)c2c3c(sc2n(Cc2ccccc2)c1=O)CCCC3	i	-7	9	-5	1	-5	6	6
COc1ccccc1C1=NOC(COc2ccc3c(C)cc(=O)oc3c2)C1 (stereo unspecified)	i	-355	-4	79*	4	2	16	3
CCOC(=O)COc1ccc(S(=O)(=O)NCc2cccnc2)cc1	i	nt	-6	-6	-14	-7	4	-2
O=C(CSc1nnc(C2COc3ccccc3O2)o1)N1CCCc2ccccc21 (stereo unspecified)	i	nt	-15	7	8	-6	-4	-5
COc1ccc(Br)cc1/C=N/n1nnnc1N	i	-17	6	3	1	-10	-1	1
COc1ccc(N(CC(=O)NC2CC3CCC2C3)S(=O)(=O)c2ccccc2)cc1Cl (stereo unspecified)	i	2	10	-15	2	-2	1	-3
CNC(=O)C12CC3CC(C1)CC(c1ccc(C)cc1)(C3)C2	i	3	5	nt	-15	2	2	-2
CCNC(=S)N/N=C/c1sc(N2CCCCC2)nc1-c1cccs1	i	-30	-7	-3	nt	24	-70	-1
COc1cc2[nH]c3c(c2cc1OC)CCN1CCCC[C@@H]31	i	nt	nt	-13	-2	nt	-4	3
O=C(Nc1ccccc1N1CCOCC1)c1ccc([N+](=O)[O-])o1	i	20	-2	20	-16	10	1	-7
CN1OC[C@@H]2CN(C(=O)C(C)(C)C)[C@H](c3cccc(-c4ccccc4)c3)C[C@@H]21	nt	26	nt	nt	-3	nt	2	8
COc1ccccc1CN1C(=O)[C@@H]2Cc3c([nH]c4ccccc34)C(C)(C)N2C1=O	i	-7	nt	2	-15	nt	4	-11
O=C(NCCC1=CCCCC1)C(c1ccccc1)c1ccccc1	i	nt	-12	-2	-11	-6	-2	-9
CCC(C)(C)NC(=O)CN(C(=O)c1snc(C(N)=O)c1N)c1ccc2nc(C)sc2c1	i	8	10	5	-12	10	3	4
c1ccc(CNc2nc3ccccc3[nH]2)cc1	i	nt	-2	nt	-9	-3	7	9
O=C(C1CCN(S(=O)(=O)c2cccc3nsnc23)CC1)N1CCn2c1nc1ccccc12	i	nt	-8	-9	-6	-2	5	1
Cc1cc(C)n(C(=O)c2ccc([N+](=O)[O-])cc2N)n1	i	-15	-10	-6	-13	6	6	5
CC(=O)N1CCc2cc(S(=O)(=O)CCC(=O)NCCc3ccccc3)ccc21	i	-6	-3	-12	-15	5	4	0
Oc1cccc(/C=N/N=C/c2cccc(O)c2O)c1O	i	-58	1	45	-73	-8	1	-13
CC(Sc1nc(N)cc(=O)[nH]1)C(=O)Nc1sc2c(c1C#N)CCCC2 (stereo unspecified)	nt	31	-6	-11	nt	0	-7	-26
CCCCNc1nc(Cl)nc(Nc2ccc(C)cc2)n1	i	10	nt	13	-19	nt	1	0
CCOC(=O)CSc1nc2cc(C(=O)OC)ccc2c(=O)n1CCN1CCOCC1	i	50	-4	-12	-10	-8	-1	4
CSc1nc2[nH]ncc2c(=O)[nH]1	i	-28	-8	-5	-9	1	4	-4
COc1ccccc1-n1cc(-c2ccccc2)c2c(=S)nc[nH]c21	i	1	-4	61	-23	-1	-4	-11
Clc1cccc(C2=NOC(c3nnc(-c4ccccc4)o3)C2)c1 (stereo unspecified)	i	-23	-2	12	-17	-1	0	4
Cc1ccc(/C=N/NC(=O)CNC(=O)COc2ccccc2)cc1	i	4	1	-7	nt	-6	4	1
CCC(C)C(=O)Nc1ncc2c(n1)CC(c1cccs1)CC2=O (stereo unspecified)	i	-40	6	-3	-19	-5	2	2
CSCC[C@H](NC(=O)OC(C)(C)C)C(=O)NCC1CCC(C(=O)N[C@@H](Cc2ccccc2)C(=O)O)CC1 (stereo partly specified)	i	-7	0	3	13	29	-2	0
COc1cc(CNc2ccc(CNc3ncn[nH]3)cc2)cc(Cl)c1OCc1ccccc1	i	14	3	58	nt	3	0	-11
N#C/C(=C\c1cccc([N+](=O)[O-])c1)c1nnc2n1CCCCC2	i	34	9	-2	nt	0	-3	-2

The final 4 compounds of the section above come first, to join the parts.
SMILES	Rce1 inh	HIV Env fusion	PABP FP inh	CSC inhib	UUG fidelity	eIF4H FP inh	MT1-MMP act inh	MT1-MMP act inh RFP	others
CCC(C)C(=O)Nc1ncc2c(n1)CC(c1cccs1)CC2=O (stereo unspecified)	i	-40	6	-3	-19	-5	2	2
CSCC[C@H](NC(=O)OC(C)(C)C)C(=O)NCC1CCC(C(=O)N[C@@H](Cc2ccccc2)C(=O)O)CC1 (stereo partly specified)	i	-7	0	3	13	29	-2	0
COc1cc(CNc2ccc(CNc3ncn[nH]3)cc2)cc(Cl)c1OCc1ccccc1	i	14	3	58	nt	3	0	-11
N#C/C(=C\c1cccc([N+](=O)[O-])c1)c1nnc2n1CCCCC2	i	34	9	-2	nt	0	-3	-2
N#Cc1c2c(c(Nc3ccc(O)cc3)n3c1nc1ccccc13)CCC2	i	8	-2	39	-12	50	3	-7	eIF4H FP inh retest=-10;PABP FP inh retest=2
CNC(=O)C1CCN(C(=O)c2ccc(-c3ccccc3)cc2)CC1	i	nt	8	5	-15	5	4	4
COc1ccc(-n2c(Cc3cc(=O)[nH]c(=O)[nH]3)nnc2SCC(=O)N2CCCC2)cc1	i	-18	4	-27	-4	4	-1	4
COC(=O)Cc1c(C)nc2nc(-c3ccc(Cl)cc3)[nH]n2c1=O	i	nt	-7	-8	-8	1	7	8
O=C(O)c1ccc(NS(=O)(=O)c2ccc(Cl)c(C(=O)Nc3ccccc3)c2)cc1	i	1	-1	1	-12	1	0	3
O=C(CC1SC(=Nc2ccccc2)N(CCc2ccccn2)C1=O)Nc1ccc(F)cc1 (stereo unspecified)	i	21	9	0	-6	-5	-3	-5
CC(C)(C)OC(=O)NCCc1nnc(SCc2ccc(Cl)cc2Cl)o1	i	37	-3	8	9	-6	6	-2
Cc1cc([N+](=O)[O-])nn1CC(=O)Nc1c(C)n(C)n(-c2ccccc2)c1=O	i	2	10	-10	-6	-2	-2	-1
CN1CCCCc2c1[nH]c1ccccc1c2=O	i	nt	69*	1	nt	59*	-6	5
COCCOC(=O)C1=C(C)Nc2nc(C)nn2C1c1ccc(F)cc1 (stereo unspecified)	i	-19&-80	2	-10	-5	-6	1&-1	-3&2
O=C(/C=C/c1ccc(Cl)cc1)N1CCN(Cc2ccccc2)CC1	i	-3	-2	-1	-8	0	5	-1
Cc1cccc(C)c1NC(=O)CNC(=O)CCNC(=O)c1ccco1	nt	-7	nt	nt	-3	nt	-2	3
CSCC(O)Cn1[nH]c(=O)c2cc(Cl)c(Cl)cc2c1=O (stereo unspecified)	nt	3	-7	-12	nt	-7	-2	0
COc1ccc(NS(=O)(=O)c2cc(NC(=O)c3ccc(Cl)cc3)ccc2N2CCOCC2)cc1	nt	-168	nt	71	-1	nt	13	-15
NC(=O)c1ccccc1NC(=O)NC1CCCCC1	i	15	1	-5	-19	-8	-7	-1
COCCCn1c(SCC(=O)Nc2ccc3c(c2)OCCO3)nnc1-c1ccoc1C	i	-6	-2	nt	-11	-5	-1	-2
O=C(CSc1ccccc1)NCc1ccccn1	i	11	6	-26	-12	-12	3	4
O=C(COC(=O)c1cccnc1Nc1ccccc1F)NC1CC1	i	-20	27	-1	nt	-6	0	1
